VACV Venus inh: vaccinia inhibition (Venus reporter) | Vaccinia virus Venus reporter expression, fluorescence | Potency, µM (highest dose often 36.5 µM), for the others: at the top dose activity change, negative = inhibition, usual class: inhibitors | actives 0.46% (n = 330,000); active means well fitted inhibition curve with a large enough effect; inconclusive means small, poorly fitted or top-dose-only effect; inactive means no such curve, though single readings can be large or run the other way; tested in A549 cells; further: nearly all actives have a fitted effect of over 30% in size; inactives centre near -10
Vaccinia mCherry: inhibitors of vaccinia virus infection (mCherry reporter signal); actives 0.63% (n = 310,000); Potency, µM (doses to about 36.5 µM), without a hit: top-dose activity change, negative = inhibition, actives largely listed as inhibitors; Vaccinia virus mCherry reporter infection, fluorescence; about a quarter of the inactives have no number; active = well fitted inhibition curve with a large enough effect; inconclusive = small, poorly fitted or top-dose-only effect; inactive = no such curve, though single readings can be large or run the other way; tested in A549 cells; further: nearly all actives have a fitted effect of over 35% in size; inactives centre near -10
An asterisk follows results filed as active; i = inactive; ? = inconclusive; nt = not tested or not shown; [ ] = another dose, or the depositor's remark. On the % scale 0 is the no-effect control and ±100 the full control effect; potency means the concentration at half of the fitted maximal effect.

cpd	Structure	VACV Venus inh	Vaccinia mCherry
1	Cc1ccc(N(C(=O)Cn2nnc(-c3ccc(C)o3)n2)C(C(=O)NC2CCCC2)c2ccncc2)cc1 (centres undefined)	7.8%	6.9%
2	CC1=C(C(=O)OCC2CCCCC2)C(c2ccc(O)cc2)NC(=O)N1 (centres undefined)	-12.7%	-14.0%
3	COC(=O)COc1cccc(NS(=O)(=O)c2ccc(NC(C)=O)cc2)c1	-10.9%	i
4	O=C(NCCN1CCOCC1)C12CC3CC(C1)CC(c1ccccc1)(C3)C2	-14.0%	-14.8%
5	Cc1cc(C)n(CCC(=O)N2CCCC(Nc3ccc(F)cc3)C2)n1 (centres undefined)	-16.8%	-0.8%
6	Cc1csc2nc(-c3ccc(NS(=O)(=O)c4cccc(F)c4)cc3)cn12	-12.2%	-20.9%
7	CC(C)C(C)/C=C/C(C)C1CCC2C3=CC=C4CC(O)CCC4(C)C3CCC21C (centres undefined)	-9.1%	-11.9%
8	CN1CCN(C(=O)COc2ccc3ccccc3c2)CC1	-22.9%	-11.1%
9	COCCNCC(=O)Nc1ccc(OC(F)(F)F)cc1	-1.0%	9.0%
10	O=C(N/N=C/c1cccc([N+](=O)[O-])c1)C1CC(=O)N(c2ccc(Cl)cc2)C1 (centres undefined)	?	nt
11	CCCN(CC1CC1)C(=O)Nc1ccccc1C	-21.1%	nt
12	CC(NC(=O)C12CC3CC(CC(C3)C1)C2)C(=O)NN=Cc1ccc([N+](=O)[O-])o1 (centres undefined)	?	?
13	CCSc1cc(C)nc2c(-c3ccccc3)c(C)nn12	-21.0%	-22.8%
14	O=C(Nc1cc(Cl)ccc1N1CCOCC1)c1ccc(N2CCCCC2)c([N+](=O)[O-])c1	-17.5%	-8.6%
15	C=CCNc1sc(C(=O)c2ccccc2)c(N)c1-c1nc2ccccc2s1	?	-27.4%
16	Brc1cccc(-c2nnn3c2nc(NCc2ccc4c(c2)OCO4)c2ccccc23)c1	-12.4%	-18.8%
17	COc1cccc2cc(C(C)N(CCCN3CCOCC3)C(=S)Nc3c(C)cccc3C)oc12 (centres undefined)	10.6%	-15.4%
18	CC(=O)c1c(O)c(C)c(O)c2c1OC1=Cc3c(c(C)nn3-c3ccccc3)C(=O)C12C (centres undefined)	-13.3%	-22.3%
19	Cc1nc2nc3c(cn2n1)C(=O)CCC3	-6.5%	-7.9%
20	CCOC(=O)C1=C(C)NC(=O)NC1c1ccc(N(CC)CC)cc1 (centres undefined)	-15.9%	-28.7%
21	Cc1ccc(C(=O)O)cc1NC(=O)C1CCN(S(=O)(=O)c2ccc3c(c2)OCCO3)CC1	-9.5%	-1.0%
22	CCOc1ccc(-c2nn(-c3ccc(F)cc3)c3c2cnc2ccc(F)cc23)cc1	-11.9%	0.2%
23	COc1ccccc1C(=O)NCC(c1cccs1)N1CCc2ccccc21 (centres undefined)	-22.2%	-2.8%
24	Cc1cc(C)nc(SCc2ccc(C(=O)N/N=C/c3ccncc3)cc2)n1	-18.3%	i
25	O=C(COc1ccc(Cl)cc1Br)Nc1ccccc1N1CCCC1	-7.8%	-12.2%
26	CCCCN1CC(c2nc3ccccc3n2CCCCOc2cc(C)cc(C)c2)CC1=O (centres undefined)	-8.0%	-15.0%
27	COC(=O)C1=C(C(=O)OC)[C@@H]2Nc3ccccc3[C@@]23C[C@@H](C(=O)OC)N(C(=O)c2ccco2)C3=N1	-13.1%	-29.7%
28	O=C(COc1ccc(Cl)cc1)NCc1nnc(SCC(=O)c2ccccc2)o1	-5.3%	-6.1%
29	O=C(NC1CC(=O)N(c2ccc(F)cc2)C1)c1ccc(S(=O)(=O)N2CCCCC2)cc1 (centres undefined)	-15.7%	-9.6%
30	COc1ccccc1Cc1c(C2CCCCC2)nc2ccc(Cl)cn12	-17.5%	-16.5%
31	c1ccc(CNCCCNCCCCNCCCNCc2ccccc2)cc1	12.6µM*	12.6µM*
32	Cc1ccc(-n2c(SCC(=O)N3c4ccccc4Sc4ccccc43)nnc2-c2ccncc2)cc1	-11.0%	-4.9%
33	N#CC(=Cc1ccnc2ccccc12)c1ccccc1	-20.6%	-18.1%
34	Cc1ccn2c(Nc3c(C)cccc3C)c(-c3ccsc3)nc2c1	-20.7%	-18.4%
35	COc1ccc(OC)c(NC(=O)CN(C)S(=O)(=O)c2ccc(C(=O)N3CCOCC3)s2)c1	-4.0%	1.2%
36	CCCCC[C@H]1CCCCC[C@@H](O)C[C@@H](O)[C@@H](O)/C=C/C(=O)O1	-9.8%	-13.6%
37	CCOC(=O)c1cc2ccc(OC)c(OC)c2c(=O)s1	-10.1%	nt
38	O=C(O)c1ccc2nc(-c3ccco3)c(-c3ccco3)nc2c1	-2.1%	-6.1%
39	CC(C)c1nc(N(C)S(C)(=O)=O)nc(-c2ccc(F)cc2)c1/C=C/C(O)CC(O)CC(=O)O (centres undefined)	-8.6%	-11.6%
40	COCCN1CCn2c(nc3cc(NS(C)(=O)=O)ccc32)C1	-2.7%	-7.3%
41	COc1ccc(S(=O)(=O)N(C)CC(=O)NC2CC2)cc1OC	-22.3%	i
42	O=C1N=C(N2CCCCC2)S/C1=C\c1ccncc1	-16.9%	-12.2%
43	CCO[C@@H]1OC(C(=O)NC2CC2)=C[C@H](c2ccc(C(F)(F)F)cc2)[C@H]1CCCO	-21.8%	-0.1%
44	O=C(CN1C(=O)NC2(CCCC2)C1=O)OCc1c(F)cccc1Cl	-4.0%	-0.5%
45	CCOC(=O)N1CCN(C(=O)c2ccc(S(=O)(=O)Nc3cccc(C(F)(F)F)c3)cc2)CC1	-14.8%	-8.7%
46	CCN1C(=O)/C(=C\C=C2/C=CC=CN2CC)SC1=S	144.0%[activator]	63.1%[activator]
47	O=C(CSc1ccc(Cl)cc1)N1CCC(c2nc3ccccc3s2)CC1	?	nt
48	CCCCN(C1CCS(=O)(=O)C1)S(=O)(=O)c1ccc(OC)cc1 (centres undefined)	3.6%	-12.1%
49	Cc1cc(Cl)cc2sc(NC(=O)c3ccco3)nc12	8.3%	36.6%[activator]
50	CC(=O)NCCc1ccc(C(=O)COC(=O)c2ccco2)cc1	-16.4%	i
51	COc1cc(N=c2oc3c(C)ncc(CO)c3cc2C(N)=O)cc(OC)c1OC	5.0%	0.9%
52	COc1ccc(OCCSc2nnc3c(Cl)cc(Cl)cn23)cc1	-1.3%	-1.2%
53	N#CC1(Nc2cccc(Br)c2)C(=O)Nc2ccccc21 (centres undefined)	-12.1%	i
54	CCCNC(=O)C1(C)CCCN(C(=O)Cc2ccc(OC)c(OC)c2)C1 (centres undefined)	-5.6%	36.3%[activator]
55	O=C(Nc1ccc(Br)cc1)c1ccc(CSC2=NCCS2)cc1	-27.5%	-12.1%[1.46 µM]
56	O=C(Nc1cccc2ccccc12)/C(Cl)=C/c1ccccc1	-9.4%	nt
57	CC(OC(=O)Cn1c(C(F)(F)F)nc2ccccc21)C(N)=O (centres undefined)	-11.1%	-18.2%[1.46 µM]
58	Cc1ccc2c(c1)CN(CCNC(=O)c1ccc3nc(C)[nH]c3c1)CC(C)O2 (centres undefined)	-1.4%	-10.9%
59	Cc1ccc(-c2nnc(SCC(=O)NC3CCCC3)n2C)cc1	-7.3%	0.3%
60	CCC(=O)Nc1nc2ccc(NC(=O)c3cc(OC)c(OC)c(OC)c3)cc2s1	-26.4%	-7.4%

2 compounds picked at random from those above:
cpd	Structure	VACV Venus inh	Vaccinia mCherry
40	COCCN1CCn2c(nc3cc(NS(C)(=O)=O)ccc32)C1	-2.7%	-7.3%
58	Cc1ccc2c(c1)CN(CCNC(=O)c1ccc3nc(C)[nH]c3c1)CC(C)O2 (centres undefined)	-1.4%	-10.9%

Next compounds follow.
cpd	Structure	VACV Venus inh	Vaccinia mCherry
61	CN(C)CCCn1cnc2c(c1=N)C(c1ccccc1)c1ccc3ccccc3c1O2 (centres undefined)	17.8µM*	?
62	CCNC(=O)C1(C)CCN1Cc1cc(-c2ccccc2)n(C)n1 (centres undefined)	-0.2%	11.2%
63	CCC1CCC(N2CCN(c3ccc([N+](=O)[O-])cc3)CC2)CC1 (centres undefined)	-18.7%	-3.5%
64	Cc1cc(C)cc(NC(=O)Nc2cccc(S(N)(=O)=O)c2)c1	-0.2%	-12.9%
65	CCCCN1C(=O)C(=O)N(CC(=O)c2ccc3c(c2)OCO3)C1=O	-10.6%	-16.1%
66	O=C(Nc1ccc2c(c1)OCO2)C1CCCN1C(=O)Nc1ccccc1F (centres undefined)	-4.3%	-6.0%
67	Cn1c(=O)sc2cc(NS(=O)(=O)c3ccc(C(C)(C)C)cc3)ccc21	-0.2%[7.34 µM]	-5.8%[7.34 µM]
68	O=C(NCc1ccc2c(c1)OCO2)Oc1ccccc1	1.8%	-24.1%
69	COc1cccc(C(=O)Nc2cccc(-c3ccc(N4CCOCC4)nn3)c2)c1OC	-27.2%	?
70	Cc1ccc(C2(C)NC(=O)N(CC(=O)NC(=O)NC(C)C)C2=O)cc1 (centres undefined)	1.3%	-11.2%
71	C=CCc1c(C)nc2nc(SCC(=O)Nc3ccc(C)c(C)c3)nn2c1C	-7.2%[7.34 µM]	-14.0%[7.34 µM]
72	COc1cc(=O)n2c(c1C(=O)NC(C)c1ccco1)CCN(C(=O)c1cccc(C)c1)CC2 (centres undefined)	0.0%	i
73	COC(=O)c1ccc(Oc2nc(NC(C)C)nc(N(C)C)n2)cc1	3.8%	-13.1%
74	COc1ccc(C(=O)N(CCN2CCOCC2)CC(=O)NC2CCCC2)cc1OC	-7.2%	-8.6%
75	COc1ccc(-c2ccc(-c3noc(-c4cc(OC)cc(OC)c4)n3)c(OC)n2)cc1	-2.4%	1.0%
76	CCc1ccc(OCC(=O)Nc2ccc3oc(=O)ccc3c2)cc1	-9.9%	2.1%
77	Cc1ccc(N(C)C(CNS(=O)(=O)c2ccccc2)c2ccccc2)cc1 (centres undefined)	2.1%	-9.7%
78	CCOC(=O)c1c(C)[nH]c(C)c1S(=O)(=O)N(C)CC(=O)Nc1ccc(C)cc1C	-4.7%	-4.6%
79	CCc1ccc(C(CNc2nc(C(F)(F)F)nc3ccccc23)N(C)C)cc1 (centres undefined)	?	-8.6%
80	O=C1Nc2ccccc2C1C(C[N+](=O)[O-])c1ccccc1 (centres undefined)	-9.5%	-10.1%
81	Cc1cc(OC(=O)C2CC2)c([N+](=O)[O-])c(=O)[nH]1	-4.8%	i
82	COc1ccc(C(=O)CCC(=O)N2CCN(c3cccc(Cl)c3)CC2)cc1	-8.1%	-8.3%
83	CCOC(=O)[C@H]1[C@H]2COc3ccc(OC)cc3[C@@H]2N2C(=O)c3ccc(F)cc3NC(=O)[C@@]12C	-3.2%	i
84	CC1(C)Cc2c(cnn2-c2ccc(F)cc2)C(NC(=O)Cn2cncn2)C1 (centres undefined)	-8.8%	-12.6%
85	CC(=O)Nc1ccc(Nc2ccc(S(=O)(=O)C(F)(F)F)cc2[N+](=O)[O-])cc1	-15.9%	-23.2%
86	O=C(Cn1nnc(-c2cccs2)n1)N1c2ccccc2Sc2ccc(C(F)(F)F)cc21	-11.4%	-3.5%
87	COc1c(O)ccc(/C=N/NC(=O)c2ccc3c(c2)OCCO3)c1[N+](=O)[O-]	-2.7%	-16.8%
88	Cc1ccc2c(c1)S/C(=C/c1ccc[n+](CCO)c1)N2C	-15.5%	-18.3%
89	C[C@H](NC(=O)c1nc[nH]c1C(=O)N[C@@H](Cc1ccccc1)C(=O)OCc1ccccc1)C(=O)OCc1ccccc1	-9.8%	-26.1%
90	Cc1ccc(NC(=O)C(C)c2ccc(-c3ccccc3)c(F)c2)c(C)c1 (centres undefined)	-17.0%	nt
91	CCNC(=S)N/N=C/c1ccc(C#N)cc1	-19.1%	?
92	CN(C(=O)COC(=O)c1n[nH]c2ccccc12)c1ccccc1	-21.6%	i
93	CNC(=O)c1c(NC(=O)C(C)C)sc2c1CCC2	-5.0%	16.4%
94	CCC/C=C1/CCCOC(C(=O)NCc2ccc(S(C)(=O)=O)cc2)(C(F)(F)F)C1 (centres undefined)	-12.5%	i
95	O=C(OCn1nnc2ccccc2c1=O)c1ccco1	-1.2%	-17.5%
96	CC(C)Cn1c(-c2ccccc2Cl)nc2ccccc21	-4.8%	0.4%
97	CO[C@H]1[C@H](NC(=O)C(C)C)c2ccccc2C12CCN(Cc1cnc(N(C)C)s1)CC2	-5.0%	-22.5%
98	COC(=O)COc1cc2ccccc2cc1C(=O)Nc1ccccc1	-5.5%	i
99	S=C(NCc1ccc(Cl)cc1)Nc1ccccc1Cl	-11.8%	-12.1%
100	CCOC(=O)C1=CC[C@@H](c2ccccc2)N(S(=O)(=O)c2ccc(C)cc2)[C@H]1/C=C/c1ccccc1	0.1%	i
101	CC1CCC(NC(=O)c2cccc(S(=O)(=O)N3CCOCC3)c2)CC1 (centres undefined)	-19.4%	i
102	CC(=NNC(=S)N1CCCC1)c1ccccn1	?	?
103	CCOC(=O)c1cc2c(=O)n3ccccc3nc2n(Cc2ccco2)c1=NC(=O)c1cccc(F)c1	-15.6%	?
104	Cc1cc(C(=O)NNC(=O)Nc2ccc(Cl)cc2)no1	-2.2%[7.34 µM]	-2.9%[7.34 µM]
105	COc1ccc(CCNC(=O)CCCn2c(=O)c3ccccc3n(Cc3c(C)cc(C)cc3C)c2=O)cc1OC	4.1%	2.7%
106	COc1ccc(C2SCCN2C(=S)Nc2ccc(F)cc2)cc1 (centres undefined)	-17.8%	-15.8%
107	COc1cnc(-c2ccccn2)nc1Sc1ccc(F)cc1	?	?

Random draw from the library. About 0.87% of those tested had a hit in this group.
